# Screening data from PubChem.
# ClpP mod: qHTS Assay for Activators of ClpP; purified B. subtilis ClpP, FRET peptide cleavage, 20 min; Potency, µM (titrated, usually from 57.5 µM), without a hit: top-dose activity change, negative = active; AID 651965, 2013; 340,000 tested, 1.9% active; active = well fitted falling curve with a large enough effect; inconclusive = small, poorly fitted or top-dose-only effect; inactive = no such curve, though single readings can be large or run the other way; also: potency is read from the fitted curve at half-maximal effect; the source files actives as falling curves though it sought activators and does not explain the sign; nearly all actives have a fitted effect of over 65% in size; many hits overshoot -100%
# Target sequence (P80244 whole entry, looked up): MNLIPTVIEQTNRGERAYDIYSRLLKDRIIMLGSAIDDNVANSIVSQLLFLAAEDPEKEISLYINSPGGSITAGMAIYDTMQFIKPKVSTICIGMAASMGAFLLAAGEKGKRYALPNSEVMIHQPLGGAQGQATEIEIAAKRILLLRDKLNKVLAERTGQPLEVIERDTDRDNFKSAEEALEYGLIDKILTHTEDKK
#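 FRET quenching reversal measured ClpP activation: 10 microg/mL B. subtilis ClpP at pH 8 with the FRET-FV decapeptide, read at 430 nm after 320 nm excitation. The 20-min minus 0-min signal was scaled between DMSO/no-enzyme wells and ADEP (5.8 microM final).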
# gsp agonist: activates gsp, the McCune-Albright syndrome mutation; gsp mutant cells, cAMP HTRF, 30 min; control for the full effect not named in the record; Potency, µM (series often up to 76.9 µM), inactives show top-dose activation (cAMP increase), usual class: activators; 340,000 tested, 0.13% active; AID 624287; active = well fitted activation curve with a large enough effect; inconclusive = small, poorly fitted or top-dose-only effect, or another doubt; inactive = no such curve, though single readings can be large or run the other way; cell line not stated here;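 also: phosphodiesterase inhibitor Ro 20-1724 added with compounds to block cAMP breakdown; potency is read from the fitted curve at half-maximal effect; nearly all actives have a fitted effect of over 60% in size; about a fifth of the inactives were tested at one dose only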
#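 Cells stably selected in G418 were plated at 2000/well, grown 16-24 hr, then given compounds in DMSO with the PDE inhibitor […] (300 uM solution added) for 30 min at 37C; cAMP was read by HTRF.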
# TRPV1 PAM: potentiators of human vanilloid receptor 1 (TRPV1) | Q8NER1 | TRPV1-expressing cells, Fluo-8 calcium influx, capsaicin EC20 potentiation; host cell line not named in the record; control for the full effect not named in the record | potentiation, % at 8.33 µM | 320,000 tested, 0.02% active; active means potentiation above 80%; inconclusive means 30% to 80%; inactive means below 30%; also: 0% is about no effect
# Target sequence (Q8NER1 whole entry, looked up): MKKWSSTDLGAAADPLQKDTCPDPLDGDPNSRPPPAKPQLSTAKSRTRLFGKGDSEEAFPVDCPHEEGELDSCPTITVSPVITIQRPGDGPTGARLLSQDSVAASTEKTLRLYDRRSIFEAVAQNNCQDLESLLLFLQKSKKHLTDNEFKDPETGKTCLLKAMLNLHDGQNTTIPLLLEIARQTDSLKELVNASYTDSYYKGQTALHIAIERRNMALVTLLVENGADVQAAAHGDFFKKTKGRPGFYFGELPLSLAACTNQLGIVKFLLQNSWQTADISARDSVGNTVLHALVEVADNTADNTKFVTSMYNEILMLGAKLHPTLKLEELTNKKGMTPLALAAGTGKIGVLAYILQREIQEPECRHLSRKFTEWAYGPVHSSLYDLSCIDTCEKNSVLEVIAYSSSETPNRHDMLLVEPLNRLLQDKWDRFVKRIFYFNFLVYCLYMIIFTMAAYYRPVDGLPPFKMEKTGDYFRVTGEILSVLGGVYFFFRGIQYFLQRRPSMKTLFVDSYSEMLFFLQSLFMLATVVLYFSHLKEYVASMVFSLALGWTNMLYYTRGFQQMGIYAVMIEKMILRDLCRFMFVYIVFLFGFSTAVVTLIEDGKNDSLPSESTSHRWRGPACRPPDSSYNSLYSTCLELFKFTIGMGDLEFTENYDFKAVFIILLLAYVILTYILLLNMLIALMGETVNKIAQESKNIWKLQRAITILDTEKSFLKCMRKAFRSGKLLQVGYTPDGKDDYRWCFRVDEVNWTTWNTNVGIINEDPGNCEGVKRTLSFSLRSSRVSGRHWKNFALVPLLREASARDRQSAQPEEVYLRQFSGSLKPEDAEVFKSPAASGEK
#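 TRPV1-expressing cells were cultured overnight at 35.5C and loaded with Fluo-8 calcium dye for 40 to 90 min at room temperature. After a 10 s baseline, compound was added and calcium influx was read kinetically for 3 min (ex 480/em 520 nm).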
# gsp antag: gsp mutant antagonism. Potency, µM (series often up to 76.9 µM), for the others: at the highest dose activity change, negative = inhibition, usual class: inhibitors. 340,000 tested, 0.4% active. gsp-mutant cells, cAMP HTRF, 30 min; control for the full effect not named in the record; active = falling curve of any shape with a large fitted effect; inconclusive = falling curve, mostly with a smaller effect; inactive = flat or rising curve; cell line not stated here;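 also: intracellular cAMP measured with PDE inhibitor Ro 20-1724 present during compound exposure; potency is read from the fitted curve at half-maximal effect; % is scaled to controls: 0 for no effect and ±100 for the full control effect; nearly all actives have a fitted effect of over 65% in size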
#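 Measurement of cellular cAMP by homogeneous time-resolved fluorescence following a 30 min compound exposure at 37C. The PDE inhibitor […] was present throughout; the assay buffer was DPBS with 0.05% BSA and 0.005% Tween 20.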
# CtBP-E1A inh: blocks the CtBP interaction with E1A | AlphaScreen GST-E1A/His-CtBP binding, 1536-well; hits give low values; control for the full effect not named in the record | 340,000 tested, 0.49% active | activity change, % (test concentration not listed); in the data active means activity change below about -65%; inconclusive means about -30% to -65%; inactive means above about -30%; also: % is scaled to controls: 0 for no effect and ±100 for the full control effect; compound concentration not given in the record
#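 Protein mix (5X: 125 nM each GST-E1A, His-CtBP) was incubated with pinned compound 2 h at 37 deg C in dark, in 50 mM Tris pH 8.0 buffer with 300 mM NaCl. Glutathione donor and nickel acceptor beads followed; AlphaScreen signal read after 1 h.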
# Sfp PPTase inh: blocks B. subtilis Sfp PPTase activity; Q9F4F7; Biochemical Sfp PPTase activity, qHTS; Potency, µM, for the others: max response, negative = inhibition, hits mostly inhibitors; 310,000 tested, 3.5% active; AID 1490; active = well fitted inhibition curve with a large enough effect; inconclusive = small, poorly fitted or top-dose-only effect, or another doubt; inactive = no such curve, though single readings can be large or run the other way;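 also: the enzyme is Sfp with the accession as filed and its product quenches rhodamine fluorescence; potency is read from the fitted curve at half-maximal effect; 0% = enzyme reaction without inhibitor and -100% = no enzyme wells; top concentration of the series not given in the record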
#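 Buffer: 50 mM Hepes-Na pH 7.6, 10 mM MgCl2, 0.01% Nonidet P-40, 0.01% BSA. Enzyme 15 nM, pre-exposed to compound 15 min; substrates then added and fluorescence change tracked over 30 min.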
# Menin-MLL FL inh: inhibitors of human menin-MLL interaction, wild-type MLL peptide; Fluorescence polarization, fluorescein-MLL peptide displacement from menin; FP activity change, % at 61.4 µM; 290,000 tested, under 10 active; AID 1766; inconclusive = falling polarisation curve, or a change in total fluorescence; inactive = total fluorescence flat and polarisation flat or rising; no compound was filed as active; the % refers to the polarisation; negative = inhibition;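 also: % of control where 0% means no effect; inhibitors lower the polarisation; unlabelled MLL peptide was the positive control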
# Active calls of the source: *; u = inconclusive; x = not tested or not shown; & = joins results of further samples; [ ] = dose if it differs, or a comment.
canonical_smiles	ClpP mod	gsp agonist	TRPV1 PAM	gsp antag	CtBP-E1A inh	Sfp PPTase inh	Menin-MLL FL inh
CCOC(=O)c1[nH]c(C)c(/C(O)=C2\C(=O)C(=O)N(CCN(C)C)C2c2ccncc2)c1C (stereo not drawn)	-3.1%	-6%	3	-10%	2	9%	2.7
CC(=O)c1cccc(NC(=O)C2CC(c3ccc(F)cc3)=NO2)c1 (stereo not drawn)	-0.6%	3%	-17	10%	-1	-6%	0.6
Cc1ccc(-c2noc(CC(c3ccccc3)c3ccccc3)n2)cc1	-1.9%	24%	2	0%	48	9%	-0.1
Cc1nn(C)cc1CNC(=O)c1cccc(Br)c1	-0.8%	-2%	-4	0%	-1	10%	0.5
COC(=O)[C@@H]1CCCN1C(=O)c1cc(COc2cccc3cccnc23)on1	-10%	-1%	6	8%	3	6%	x
COc1ccc(N2CCN(c3ncnc4scc(-c5ccc(F)cc5)c34)CC2)cc1	-21%	-3%[15.4 µM]	-29	-19%	-22	4%	-1.5
Cc1ccccc1NC(=O)CCN1CCCCCC1	-0.7%	-5%	x	7%	6	x	x
CC(C)(C)NC(=S)N/N=C/c1cc(Br)c(O)c(Br)c1	u	15%	-28	12%	x	-29%	-0.8
CC(=O)N(Cc1cc(=O)[nH]c2ccccc12)c1ccc(C)cc1C	x	7%[15.4 µM]	19	0%	-1	-13%	0.6
NC(=O)CN1C(=O)C(O)(CC(=O)c2ccccc2O)c2ccccc21 (stereo not drawn)	1.3%	1%	1	6%	4	9%	-1.2
CCN(CC)C(=O)C1=C(C)N(Cc2ccccc2)C(=O)C(CC(=O)NC(c2ccccc2)c2ccccc2)C1 (stereo not drawn)	-1.4%	-7%	x	x	-6	x	x
O=C(NCCc1ccccn1)c1cc2ccccc2o1	x	3%[15.4 µM]	6	2%	1	8%	-0.1
CCCC1O[C@@H]2CC3C4CCC5=CC(=O)C=C[C@]5(C)C4C(OC(C)=O)C[C@]3(C)[C@]2(C(=O)COC(C)=O)O1 (stereo partly drawn)	-0.8%	u	-6	u	5	-3%	2.6
COCCNC(=O)CSc1ccccc1C(=O)O	x	10%[15.4 µM]	4	x	0	15%	-2.2
Cc1c(C(=O)NCC2CCCO2)oc2c(Cl)cccc12 (stereo not drawn)	-4.9%	8%[15.4 µM]	6	-1%	-24	x	x
O=C(NC1CCCC1)C1CCC(CNS(=O)(=O)c2ccccc2)CC1 (stereo not drawn)	0.3%	-37%[inhibitor]	-8	8%	-1	1%	5.9
Cc1nnc(SCC(=O)N/N=C/c2cc(Cl)c(O)c(Cl)c2)s1	-11%	8%	13	-2%	1	-1%	8.7
O=C(O)C1=C[C@@H](C2CC2)C[C@@H](OCCCCO)O1	-1.3%	x	x	10%	-3	x	x
CCC(=O)Nc1nn(C)c2nc3c(C)cccc3cc12	-11%	11%	-1	-6%	9	36%[activator]	1.7
COc1cccc(NC(=O)N2CCC(n3nnc4ccccc43)CC2)c1	-1.9%	u	1	-2%	-5	1%	-5.5
CCc1cccc(CC)c1NC(=O)NC1CCCCC1	-13%	-42%[inhibitor]	5	7%	16	18%	-0.7
O=C(COC(=O)c1n[nH]c2ccccc12)Nc1ccccc1Br	1.3%	-4%[15.4 µM]	x	-19%	6	x	x
Cc1ccc(/C=N/NC(=O)c2cccs2)cc1[N+](=O)[O-]	-1.3%	0%	-17	4%	-3	15%	3.1
CC(C)Cc1nnc(NC(=O)CCC(=O)NC2CCCCCCC2)s1	-1.4%	6%	-14	-1%	-3	6%	x
COc1ccc(C(=O)C2CCCN(C(=O)c3ccc(F)cc3)C2)cc1OC (stereo not drawn)	-4.8%	u	11	-4%	-2	9%	1.0

canonical_smiles	ClpP mod	gsp agonist	TRPV1 PAM	gsp antag	CtBP-E1A inh	Sfp PPTase inh	Menin-MLL FL inh
CCN(CC)C(=O)C(=O)c1cccn1-c1cccc(OC)c1C#N	-0.5%	4%	4	0%	2	15%	2.1
O=C1CCCC2=C1C(c1ccc(OS(=O)(=O)c3ccc(Cl)cc3)cc1)C1=C(CCCC1=O)O2	-0.2%	-4%	17	3%	-1	9%	5.5
Cc1noc(C)c1CSc1nnc2n(-c3ccccc3)c(=O)c3ccccc3n12	x	11%[15.4 µM]	x	2%	3	x	x
COc1ccc(C(=O)CSc2ncnc3nc[nH]c23)cc1	x	9%[15.4 µM]	0	-17%	0	32%[activator]	-1.0
Cc1ccc(CC(=O)NCCCc2ccccc2)cc1	-3.7%	-1%	-19	-5%	-1	-1%	1.9
COc1ccccc1C(=O)COC(=O)CNC(=O)c1ccc(Br)o1	0.7%	1%	-1	6%	11	x	x
CCC(=O)Nc1cccc(C2=NOC3(C2)C[C@@H](C(N)=O)N(C(=O)COc2ccc(Cl)cc2)C3)c1 (stereo partly drawn)	-1.7%	x	u	-5%	0	-10%	-2.5
CCSc1ccc([C@@H]2[C@@H]3C(=O)N(CC)C(=O)[C@@H]3[C@]3(C(=O)OC)CCCCN23)cc1	-1.2%	x	15	-5%	-12	x	x
COc1cccc(C(=O)OCC(=O)Nc2cc(C)on2)c1OC	0.0%	-12%[15.4 µM]	x	5%	5	x	x
c1ccc(-c2cnc(-c3ccccc3)nc2)cc1	2.0%	-29%	-8	11%	7	9%	0.8
CC1(C)N=C(/C=N/O)C=[N+]1[O-]	-2.3%	-10%	5	2%[15.4 µM]	-11	0%	-6.9
CCOc1cccc(/C(O)=C2/C(=O)C(=O)N(CCN3CCOCC3)C2c2cccnc2)c1 (stereo not drawn)	0.5%	u	-5	1%	0	-3%	1.8
O=C(NCc1ccccc1)c1ccccc1OCC(=O)N1CCCCC1	-2.6%	1%	-29	-5%	-4	6%	-1.4
CC(NC(=O)c1cccc(OC2CCN(C(=O)C3CC3)CC2)c1)c1ccc(F)cc1 (stereo not drawn)	1.1%	9%	-4	-8%	8	4%	2.5
Cc1noc(C)c1S(=O)(=O)N1CCC(C(=O)N2CCC(N3CCCCC3)CC2)CC1	0.2%	-47%[inhibitor]	x	8%	2	-4%	-1.6
O=C(NC(=S)NCCc1ccccc1)c1ccco1	1.0%	5%[15.4 µM]	-17	-6%	1	2%	1.8
O=C(Nc1ccccc1)Nc1ccc(F)c([N+](=O)[O-])c1	u	-46%[inhibitor]	-19	-22%	-3	-13%	2.2
O=S(=O)(Nc1ccncc1)c1ccccc1	1.4%	-3%	-1	7%	-1	17%	0.6
COc1ccc(NC(=O)CCN2CCCCCC2)c(OC)c1	-1.4%	-16%	7	-8%	-4	16%	2.5
OC(c1ccccc1)C(NCc1ccccc1)c1ccccc1 (stereo not drawn)	2.2%	16%	x	x	1	x	x
CCCCOc1ccc(CNn2c(C)nc3ccccc3c2=O)cc1	0.8%	0%	x	-13%	0	u	-0.9
CCS(=O)(=O)Nc1ccc(C2=NN(C(=S)Nc3ccccc3)C(c3ccco3)C2)cc1 (stereo not drawn)	0.8%	-19%	8	-18%	-1	u	1.6
CC(=O)Nc1ccccc1OCC(=O)NC(C)c1ccc(F)cc1 (stereo not drawn)	-7.1%	-27%	1	2%	6	16%	3.0
CC(=O)c1c(C)[nH]c(C(=O)Nc2ccc(C)cn2)c1C	-0.5%	-29%	-12	5%	-5	17%	-1.6
CC1=C(C(=O)N(C)C)CC(CC(=O)NCCN2CCOCC2)C(=O)N1CCC1=CCCCC1 (stereo not drawn)	0.4%	20%	x	x	7	x	x

canonical_smiles	ClpP mod	gsp agonist	TRPV1 PAM	gsp antag	CtBP-E1A inh	Sfp PPTase inh	Menin-MLL FL inh
Cn1ncc2c(NCc3ccccc3)nc(NCCCO)nc21	-11%	-16%	3	-5%	0	2%	0.2
Nc1cc(N)nc(SCC(=O)NCC2CCCO2)n1 (stereo not drawn)	-0.2%	-11%	4	5%	13	7%	1.3
COc1ccccc1NC(=O)Nc1nc(CC(=O)Nc2ccc(F)cc2)cs1	0.5%	-24%	11	-8%	1	x	x
CC(=O)N1CCN(c2ccc(NC(=O)c3cccc([N+](=O)[O-])c3)cc2)CC1	-1.2%	-36%[inhibitor]	1	u	x	13%	-0.8
CCOC(=O)N1CCN(c2ccc(F)cc2[N+](=O)[O-])CC1	0.0%	-2%	-25	2%	-3	-6%	1.3
Cn1c(=O)c2cccnc2c(=O)n1C	-2.6%	0%	x	x	1	x	x
CCc1ccccc1NC(=O)C1=CC(c2ccc(OC)c(OC)c2)=NS(=O)(=O)N1C	0.3%&-1.4%	u	5	-8%	2	9%	2.2
CCN(CC)S(=O)(=O)c1cc(C(=O)Oc2cccc(-c3cnc4ccccc4n3)c2)ccc1OC	-3.4%	-4%	-1	-11%	2	1%	-5.8
Cc1cccc(NC(=O)Cn2nnc(-c3cccs3)n2)c1C	-1.6%	1%	3	8%	-6	5%	-0.9
O=C(CN1c2ccccc2Sc2ccccc21)N/N=C/c1ccc([N+](=O)[O-])cc1	-1.6%	10%[15.4 µM]	1	-3%	u	7%	-1.9
Cc1ccc(/C=N\NC(=O)C2COc3cc4ccccc4cc3O2)o1 (stereo not drawn)	-0.5%	3%	u	-1%	-18	16%	-0.2
Cc1ccc(SCCOCCN2CC(C)OC(C)C2)cc1 (stereo not drawn)	x	u	-3	6%	4	11%	-4.6
OC(CNCc1ccccc1)(c1ccc(F)cc1)c1ccc(F)cc1	0.6%	1%	0	u	17	-2%	1.5
C#CCOCCOCCOCCNc1nc(N2CCN(C(=O)CCCCCCCCCCNC(=O)Cn3cc(C[C@@H](C)O)nn3)CC2)nc(N2CCN(C(=O)CCCCCCCCCCNC(=O)Cn3cc(C[C@@H](C)O)nn3)CC2)n1	-0.5%	-72%[inhibitor]	-21	-2%	8	x	x
N#CC(c1nc2ccccc2nc1N1CCCCC1)S(=O)(=O)c1ccc(Cl)cc1 (stereo not drawn)	x	x	-2	x	x	8%	u
CCN(CC)CCOC(=O)c1ccc(NC(=O)CCCN2C(=O)S/C(=C/c3ccc(OC)cc3)C2=S)cc1	x	0%	u	-5%	-27	-21%	-0.3
